# Source: PubChem
# Ecoli rRNA inh – inhibits bacterial ribosomal RNA function over humanized ribosomes | GFP signal change (wild-type ribosome), % (no concentration beside the values) | 1.6% of 350,000 active | E. coli WT GFP vs humanized-ribosome RFP mutants, fluorescence, 24 h; active compounds read low; DMSO median 0, no signal -100;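 active means significant combined selectivity score with lowered wild-type GFP, culture density cut under 30%, mutant RFP and density less affected; inactive means any of these conditions unmet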; further: one replicate is shown; some compounds called inactive have numbers as strong as hits
# Ecoli rRNA inh OD600 – further read-out of Ecoli rRNA inh, marked with its call; OD600 change, %; measured here: OD600 growth;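 optical density of the mix in the first replicate; 0 = DMSO median and -100 = no signal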
# Ecoli rRNA inh RFP – second read-out of Ecoli rRNA inh, no call of its own (marks repeat the call); RFP signal change, %; measured here: RFP humanized mutant strains;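 first replicate; 0 = DMSO median and -100 = no signal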
# An asterisk follows results filed as active; & = joins results of further samples.
Ecoli rRNA inh | Ecoli rRNA inh RFP | Ecoli rRNA inh OD600 | SMILES
2 | -0.3 | 4 | Cc1noc(C)c1S(=O)(=O)Nc1cccc2c1O[C@@H](CN(C)CC1CCCCC1)[C@@H](C)CN([C@@H](C)CO)C2=O
-12 | -5.8 | -34 | CC1(C(=O)Nc2cccc(C#N)c2)CCN1C(=O)C1(c2ccccc2)CC1 (stereo unspecified)
6 | -0.5 | 7 | C[C@H](CO)N1C[C@H](C)[C@H](CN(C)CC2CC2)Oc2c(NS(=O)(=O)c3cn(C)cn3)cccc2C1=O
1 | 0.3 | 3 | C[C@@H]1CN([C@@H](C)CO)C(=O)CCCn2nncc2CO[C@@H]1CN(C)Cc1ccccc1C(=O)O
1 | 0.3 | -10 | CO[C@@H]1CN(C)C(=O)c2cc(NC(C)=O)ccc2OC[C@@H](C)N(C(=O)CN(C)C)C[C@@H]1C
2 | -1.4 | 7 | COc1ccc(C#Cc2cnc3c(c2)C(=O)N([C@@H](C)CO)C[C@H](C)[C@H](CN(C)C(C)=O)O3)cc1
-20 | -4.6 | -40 | O=C(Nc1ccc(F)cc1)N1C[C@@H]2[C@H](c3ccccc31)[C@@H](CO)N2Cc1ccccc1Cl
5 | 1.6 | 13 | O=C(NC1CCCCC1)N1CC(=O)N2[C@H](CO)[C@@H](c3ccc(-c4cccnc4)cc3)[C@H]2C1
-1 | 1.7 | 5 | CNC[C@@H]1Oc2ccc(NC(=O)c3ccncc3)cc2C(=O)N([C@@H](C)CO)C[C@H]1C
-1 | -4.0 | -1 | CS(=O)(=O)Nc1ccc2c(c1)[C@@H]1C[C@@H](CC(=O)N3CCOCC3)O[C@H](CO)[C@@H]1O2
14&-5 | 1.3&-4.0 | 8&-1 | Cc1ccccc1S(=O)(=O)N(C)C[C@H]1OCc2cnnn2CCCC(=O)N([C@H](C)CO)C[C@@H]1C
-3 | 1.9 | -9 | C[C@@H](NC(=O)C[C@@H]1C[C@@H]2c3cc(NS(=O)(=O)c4ccc(F)cc4)ccc3O[C@@H]2[C@H](CO)O1)c1ccccc1
1 | -4.6 | 5 | O=C(NC1CCCC1)[C@H]1[C@H](CO)[C@H]2Cn3c(ccc(-c4ccncc4)c3=O)[C@H]2N1CC1CC1
30 | 5.8 | 10 | CC(C)NC(=O)C1(C)CSCC(=O)N1Cc1cccc(F)c1 (stereo unspecified)
-1 | -0.2 | -4 | COc1cccc(NC(=O)N[C@@H]2C=C[C@H](CC(=O)N3CCCCC3)O[C@H]2CO)c1
-4 | 3.0 | -1 | CCOC(=O)C1CSCCS(=O)(=O)N1Cc1cccc(F)c1 (stereo unspecified)
-2 | -1.4 | -2 | C[C@H](CO)N1C[C@H](C)[C@@H](CN(C)S(=O)(=O)c2ccccc2)OCCCC[C@H](C)Oc2ccc(NC(=O)CCCN(C)C)cc2C1=O
3 | -1.9 | 9 | C[C@@H]1CN([C@H](C)CO)C(=O)c2cc(NS(=O)(=O)c3cn(C)cn3)ccc2O[C@@H](C)CCCCO[C@@H]1CN(C)S(=O)(=O)c1cn(C)cn1
3 | -0.6 | 7 | Cc1noc(C)c1NC(=O)Nc1ccc2c(c1)C(=O)N([C@H](C)CO)C[C@H](C)[C@@H](CN(C)C(=O)Nc1ccccc1)OCCCC[C@@H](C)O2
-2 | 0.1 | 4 | Cc1cccc(S(=O)(=O)N[C@H]2CC[C@@H](CCn3cc(-c4ccccn4)nn3)O[C@@H]2CO)c1
4 | 1.0 | 15 | COc1ccc2c3c(n(C)c2c1)[C@H](CO)N(C(=O)CN1CCOCC1)CC31CCN(C(C)=O)CC1
7 | 0.0 | 5 | CNC[C@@H]1Oc2c(NS(=O)(=O)c3ccc(C)cc3)cccc2C(=O)N([C@@H](C)CO)C[C@@H]1C
0 | -0.9 | -1 | OC[C@H]1[C@@H](c2ccccc2)[C@@H](CNCC2CCC2)N1CC1CC1
-1 | -0.6 | -2 | CCC(=O)N1[C@H](CO)[C@H](c2ccccc2)C12CN(Cc1nccs1)C2
1 | -3.1 | 2 | CO[C@@H]1CN(C)C(=O)c2ccc(NC(C)=O)cc2OC[C@H](C)N(C(=O)C2CCC2)C[C@H]1C

# Shown as labelled records: 4 of the compounds above
Cc1cccc(S(=O)(=O)N[C@H]2CC[C@@H](CCn3cc(-c4ccccn4)nn3)O[C@@H]2CO)c1
  Ecoli rRNA inh = -2	Ecoli rRNA inh RFP = 0.1	Ecoli rRNA inh OD600 = 4
C[C@@H](NC(=O)C[C@@H]1C[C@@H]2c3cc(NS(=O)(=O)c4ccc(F)cc4)ccc3O[C@@H]2[C@H](CO)O1)c1ccccc1
  Ecoli rRNA inh = -3	Ecoli rRNA inh RFP = 1.9	Ecoli rRNA inh OD600 = -9
CO[C@@H]1CN(C)C(=O)c2ccc(NC(C)=O)cc2OC[C@H](C)N(C(=O)C2CCC2)C[C@H]1C
  Ecoli rRNA inh = 1	Ecoli rRNA inh RFP = -3.1	Ecoli rRNA inh OD600 = 2
O=C(NC1CCCCC1)N1CC(=O)N2[C@H](CO)[C@@H](c3ccc(-c4cccnc4)cc3)[C@H]2C1
  Ecoli rRNA inh = 5	Ecoli rRNA inh RFP = 1.6	Ecoli rRNA inh OD600 = 13

# Fetched one by one from above:
Ecoli rRNA inh | Ecoli rRNA inh RFP | Ecoli rRNA inh OD600 | SMILES
-2 | 0.1 | 4 | Cc1cccc(S(=O)(=O)N[C@H]2CC[C@@H](CCn3cc(-c4ccccn4)nn3)O[C@@H]2CO)c1
2 | -0.3 | 4 | Cc1noc(C)c1S(=O)(=O)Nc1cccc2c1O[C@@H](CN(C)CC1CCCCC1)[C@@H](C)CN([C@@H](C)CO)C2=O

# (more compounds)
Ecoli rRNA inh | Ecoli rRNA inh RFP | Ecoli rRNA inh OD600 | SMILES
-4 | 1.3 | -3 | CO[C@H]1CN(C)C(=O)c2ccc(NC(=O)NC(C)C)cc2OC[C@H](C)N(Cc2ccc(-c3ccccn3)cc2)C[C@H]1C
0 | -1.2 | 7 | CCCC#Cc1cnc2c(c1)C(=O)N([C@H](C)CO)C[C@@H](C)[C@H](CN(C)S(=O)(=O)c1cn(C)cn1)O2
-2 | 30 | -51 | COc1cccc(NC(=O)N2CC(=O)N3[C@@H](CO)[C@H](c4ccc(C5=CCCC5)cc4)[C@@H]3C2)c1
4 | -1.4 | 16 | CO[C@@H]1CN(C)C(=O)c2cc(NC(=O)CC(F)(F)F)ccc2OC[C@H](C)N(S(=O)(=O)c2cn(C)cn2)C[C@H]1C
5 | 2.1 | 2 | CC(C)NC(=O)Nc1ccc2c(c1)C(=O)N([C@@H](C)CO)C[C@H](C)[C@H](CN(C)Cc1ccc(C(F)(F)F)cc1)OCCCC[C@H](C)O2
8 | 0.0 | 10 | CCCCNC(=O)C1(C)CCN1C(=O)c1ccc(OC)c(F)c1 (stereo unspecified)
-61 | -22 | -77 | O=C(C#Cc1ccccc1)c1ccccc1
-3 | 2.2 | -3 | C[C@H](O)C#Cc1ccc2c(c1)O[C@@H](CN(C)Cc1ccncc1)[C@@H](C)CN([C@H](C)CO)S2(=O)=O
3 | -3.8 | 7 | C[C@H](CO)N1C[C@H](C)[C@@H](CN(C)C(=O)c2ccccn2)Oc2ncc(-c3cccc(F)c3)cc2C1=O
-20 | 23 | -52 | O=C(Nc1ccc(F)cc1)N1CC(=O)N2[C@H](CO)[C@H](c3ccc(-c4cccc(F)c4)cc3)[C@H]2C1
4 | -2.6 | 16 | COc1ccc2c3c([nH]c2c1)[C@H](CO)N(C(=O)C1CCCCC1)CC31CCN(C)CC1
1 | -3.4 | 3 | CC(C)OC(=O)N(C)C[C@@H]1OCc2ccccc2-c2ccccc2C(=O)N([C@@H](C)CO)C[C@@H]1C
2 | 2.5 | -19 | CCS(=O)(=O)N1CC(=O)N2[C@H](CO)[C@@H](c3ccc(C#Cc4cccc(F)c4)cc3)[C@H]2C1
-40 | -0.4 | -69 | C[C@H]1CN([C@@H](C)CO)S(=O)(=O)c2ccc(C3=CCCCC3)cc2O[C@H]1CN(C)Cc1cccnc1
3 | 2.0 | -6 | COc1ccc(S(=O)(=O)N(C)C[C@H]2Oc3ccc(NS(=O)(=O)c4ccc(C)cc4)cc3CC(=O)N([C@@H](C)CO)C[C@H]2C)cc1
10 | -1.7 | 9 | CCc1noc(C)c1C(=O)N(CC)CC(=O)NCc1ccc(F)cc1
4 | 1.8 | 15 | CCOC(=O)C1(C)CCN1C(=O)c1cccc(OC)c1 (stereo unspecified)
4 | -1.5 | 5 | C[C@H](CO)N1C[C@H](C)[C@@H](CN(C)C(=O)Nc2ccc(F)cc2)Oc2ncc(C#C[C@@H](C)O)cc2C1=O
-6 | -3.2 | -7 | Cc1nc(NC(=O)c2ccccc2)sc1-c1cc(C(=O)NCCO)nn1Cc1ccccc1
2 | 2.0 | 7 | NC(c1csc(Nc2cc(NCc3ccco3)ncn2)n1)c1ccccc1Cl (stereo unspecified)
-1 | -2.5 | 6 | C[C@@H]1CCCCO[C@H](CN(C)CC2CC2)[C@H](C)CN([C@@H](C)CO)C(=O)c2cc(NC(=O)Nc3ccc4c(c3)OCO4)ccc2O1
2 | -2.5 | 8 | CCCNC(=O)N1[C@@H](C#N)[C@@H](c2ccc(-c3ccc(C(=O)N(C)C)cc3)cc2)[C@@H]1CO
-59 | -23 | -80 | CC(O)(c1cccc(F)c1)c1nc(-c2ccc(Cl)cc2)cs1 (stereo unspecified)
-9 | -4.7 | -5 | CCCNC(=O)Nc1ccc2c(c1)C(=O)N(C)C[C@@H](OC)[C@H](C)CN(CC1CCCC1)[C@H](C)CO2
3 | 2.7 | 4 | COc1ccc(S(=O)(=O)Nc2ccc3c(c2)C(=O)N([C@H](C)CO)C[C@H](C)[C@H](CN(C)S(=O)(=O)c2cn(C)cn2)O3)cc1
-2 | -2.9 | -7 | O=S(=O)(N[C@@H]1CC[C@H](CCn2cc(C3CC3)nn2)O[C@@H]1CO)c1ccc(Cl)cc1
-4 | -3.3 | -6 | Cc1cccc(NC(=O)c2ncn3c2C(=O)N[C@H](C)C3)c1
-43 | -15 | -79 | COC(=O)C1=C(C)N(Cc2ccccc2C(F)(F)F)C(=NCC2CC2)NC1c1cccc(Cl)c1 (stereo unspecified)
0 | 1.7 | 1 | O=C(c1ccccc1F)N1CC(=O)N2[C@H](C1)[C@@H](c1ccc(-c3cccnc3)cc1)[C@@H]2CO
0 | 2.0 | 6 | C[C@H]1CN([C@@H](C)CO)C(=O)c2cccc(NC(=O)c3cnccn3)c2O[C@@H]1CN(C)C(=O)Nc1cccc2ccccc12
4 | 1.1 | 12 | COc1cc(CN2CC3(CCN(C(=O)Nc4c(C)noc4C)CC3)c3c([nH]c4cc(OC)ccc34)[C@@H]2CO)cc(OC)c1
-1 | 6.7 | -8 | C[C@@H]1CNC(=O)c2c(C(=O)Nc3ccc(CNC(=O)OC(C)(C)C)cc3)ncn21
-23 | -1.0 | -27 | COC(=O)C1=CN(c2c(C)cc(C)cc2C)C(N)=C(C#N)C1c1cccc(F)c1 (stereo unspecified)
-5 | 0.3 | -3 | CCCC(=O)Nc1ccc2c(c1)OC[C@@H](C)N(Cc1ccncc1)C[C@H](C)[C@H](OC)CN(C)C2=O
0 | -0.5 | -7 | CNC[C@H]1Oc2cc(-c3ccncc3)ccc2S(=O)(=O)N([C@H](C)CO)C[C@@H]1C
-44 | -0.1 | -76 | CCC(c1nnnn1-c1c(C)cccc1C)N1CCCN(Cc2ccc(F)cc2)CC1 (stereo unspecified)
0 | -2.2 | 5 | O=C(c1cccnc1)N1CC[C@@H]2[C@H]1c1cc(C#Cc3cccnc3)ccc1N[C@@H]2CO
4 | -1.4 | 4 | O=C([C@@H]1[C@@H](CO)[C@@H]2Cn3c(cccc3=O)[C@@H]2N1CCC(F)(F)F)N1CCCCC1
-59 | -16 | -83 | C[C@@H]1CCCCO[C@@H](CN(C)C)[C@H](C)CN([C@H](C)CO)C(=O)c2cc(NC(=O)Nc3ccc(C(F)(F)F)cc3)ccc2O1
1 | 1.1 | 2 | O=C(C[C@H]1CC[C@@H]2[C@H](COC[C@H](O)CN2Cc2cc(F)ccc2F)O1)N[C@@H]1CCN(Cc2ccccc2)C1
-1 | -3.2 | -2 | CO[C@@H]1CC[C@@H]2CCN(C)C(=O)C[C@@H](c3ccccc3)CN(C)C(=O)c3cc(C#N)ccc3OC[C@H]1O2
1 | -2.0 | 2 | COCC(=O)N1C[C@H](C)[C@H](OC)CN(C)C(=O)c2cc(NC(=O)Nc3ccccc3)ccc2OC[C@H]1C
-23 | 21 | -65 | OC[C@@H]1[C@@H](c2ccccc2)C2(CN(Cc3cccc(F)c3)C2)N1CC1CCCC1
-7 | 3.6 | 5 | Cc1ccccc1Nc1n[nH]c(=S)s1
2 | 10 | -14 | O=C1CN(S(=O)(=O)Cc2ccccc2)C[C@@H]2[C@@H](c3ccc(C#CC4CC4)cc3)[C@@H](CO)N12
5 | -2.5 | 18 | CCNC(=O)C[C@@H]1CC[C@H]2[C@@H](COC[C@@H](O)CN2C(=O)CC)O1
-2 | 1.0 | -6 | COc1ccc(CCNC(=O)Nc2nc(C(N)CCc3ccccc3)cs2)cc1OC (stereo unspecified)
4 | 3.4 | -1 | O=P(c1ccccc1)(c1ccccc1)C(O)c1cccs1 (stereo unspecified)
-3 | -0.3 | -10 | CC(C)CC#Cc1ccc2c(c1)O[C@@H](CN(C)C(=O)c1ccccc1)[C@@H](C)CN([C@H](C)CO)S2(=O)=O
-2 | -6.5 | -1 | CCNC(=O)C[C@@H]1CC[C@H]2[C@@H](COC[C@@H](O)CN2C(=O)Nc2cccc(OC)c2)O1
-4 | 2.1 | -3 | C[C@H]1CN([C@@H](C)CO)C(=O)c2cccc(NC(=O)Nc3ccccc3)c2O[C@@H]1CN(C)Cc1ccc(C(F)(F)F)cc1
5 | 0.1 | -2 | COc1ccc(S(=O)(=O)Nc2ccc3c(c2)C(=O)N([C@@H](C)CO)C[C@H](C)[C@@H](CN(C)CC2CC2)O3)cc1
7 | 0.1 | 7 | Fc1cccc(Cc2c(-c3ccco3)nc3ccc(Br)cn23)c1

# This is a subset, so the mix of outcomes need not match the whole.
